From PubChem BioAssay
StopGo reporter: High Throughput Screening for Foot and Mouth Disease Virus Antivirals | AID 1159524, 2015 | human cells with a luciferase reporter of 2A StopGo recoding; control for the full effect not named in the record | Potency, µM (series often up to 57.9 µM), for the others: at the highest dose signal change, negative = less light | hit rate 1.2% among 410,000; active = well fitted falling curve with a large enough effect; inconclusive = small, poorly fitted or top-dose-only effect; inactive = no such curve, though single readings can be large or run the other way; tested in HEK293T cells; also: % is scaled to controls: 0 for no effect and ±100 for the full control effect; nearly all actives have a fitted effect of over 45% in size; luciferase light after 4 h
Cruzain noTriton: qHTS Assay for Promiscuous and Specific Inhibitors of Cruzain (without detergent); hit rate 2.3% among 200,000; Potency, µM, without a hit: max response, negative = inhibition, hits mostly inhibitors; AID 1476, 2009; purified cruzain, Z-FR-AMC fluorescence, no detergent; active = well fitted curve in the direction sought with a large enough effect; inconclusive = small, poorly fitted or top-dose-only effect, or another doubt; inactive = no such curve, though single readings can be large; an effect the other way counts as inactive or inconclusive;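 also: plate controls were enzyme without inhibitor for no effect and buffer without enzyme for full effect; nearly all actives have a fitted effect of over 40% in size; top concentration of the series not given in the record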
Target sequence (P25779 123-467 limits assumed): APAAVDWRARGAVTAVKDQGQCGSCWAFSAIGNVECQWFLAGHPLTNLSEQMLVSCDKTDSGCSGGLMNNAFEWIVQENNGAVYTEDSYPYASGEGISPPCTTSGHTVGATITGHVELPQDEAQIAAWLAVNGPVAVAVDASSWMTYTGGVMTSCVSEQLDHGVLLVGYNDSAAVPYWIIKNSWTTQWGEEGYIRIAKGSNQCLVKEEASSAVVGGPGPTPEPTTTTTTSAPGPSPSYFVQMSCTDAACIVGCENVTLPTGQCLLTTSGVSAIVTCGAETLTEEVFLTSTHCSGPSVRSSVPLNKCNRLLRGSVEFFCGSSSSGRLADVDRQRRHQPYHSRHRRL
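Purified cruzain at 1.5 nM, pre-incubated 15 min with compound at room temperature in 100 mM sodium acetate pH 5.5, 5 mM DTT, 0.00005% Triton X-100. Reaction started with 2 uM Z-FR-AMC; AMC fluorescence increase over 60 s gives rate.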
Marburg entry inh: qHTS for inhibitors of binding or entry into cells for Marburg Virus | Potency, µM (highest dose often 37.8 µM), without a hit: at the top dose activity change, negative = inhibition, actives largely listed as inhibitors | Marburg virus pseudotyped entry inhibition, cell reporter; control for the full effect not named in the record; about a third of the inactives were read at about 46 µM | hit rate 1.8% among 300,000; active = well fitted inhibition curve with a large enough effect; inconclusive = small, poorly fitted or top-dose-only effect, or effect the other way; inactive = flat fitted curve, though single readings scatter; tested in HEK293 cells; about a fifth of its hits are not listed in these tables; also: % is scaled to controls: 0 for no effect and ±100 for the full control effect; luciferase read-out
LASV entry inh: qHTS for Inhibitors of binding or entry into cells for Lassa Virus | Potency, µM (doses to about 37.9 µM), without a hit: at the top dose activity change, negative = inhibition, usual class: inhibitors | hit rate 1.2% among 300,000 | AID 540256, 2011 | Lassa virus pseudotype entry inhibition, cell reporter; control for the full effect not named in the record; active means well fitted inhibition curve with a large enough effect; inconclusive means small, poorly fitted or top-dose-only effect, or effect the other way; inactive means flat fitted curve, though single readings scatter; tested in HEK293 cells; also: % is scaled to controls: 0 for no effect and ±100 for the full control effect; nearly all actives have a fitted effect of over 50% in size; luciferase read-out
SARS PLP yeast: qHTS of Yeast-based Assay for SARS-CoV PLP; S. cerevisiae expressing SARS-CoV PLpro, growth rescue; control for the full effect not named in the record; Potency, µM (doses to about 32.9 µM), for inactives: top-dose activity, positive = growth rescue; hit rate 0.19% among 330,000; also: 0% is about no effect; nearly all actives have a fitted effect of over 55% in size; growth read by luminescence after 48 h
NS1 function inh: qHTS Assay for Inhibitors of Influenza NS1 Protein Function; Potency, µM (titrated, usually from 46.1 µM), for the others: at the highest dose activity, positive = more growth; S. cerevisiae slowed by influenza A NS1, growth recovery by OD600; AID 2326, 2010; hit rate 0.4% among 270,000; also: actives are rising curves; nearly all actives have a fitted effect of over 50% in size
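Growth recovery, yeast-based: influenza A NS1 expressed in S. cerevisiae causes slow growth, and suppressors are detected by OD600. The parent strain without NS1 is used as positive control.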
Cruzain inh Det: qHTS Assay for Promiscuous and Specific Inhibitors of Cruzain (with detergent); Cruzipain (Trypanosoma cruzi), P25779; purified cruzain, Z-FR-AMC fluorescence, 0.01% Triton; Potency, µM, for the others: max response, negative = inhibition, hits mostly inhibitors; hit rate 0.43% among 200,000; active = well fitted curve in the direction sought with a large enough effect; inconclusive = small, poorly fitted or top-dose-only effect, or another doubt; inactive = no such curve, though single readings can be large; an effect the other way counts as inactive or inconclusive;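 also: plate controls were neutral wells for no effect and buffer without enzyme for full effect; nearly all actives have a fitted effect of over 40% in size; top concentration of the series not given in the record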
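Detergent-containing run (0.01% Triton X-100) in acetate buffer pH 5.5 with 5 mM DTT: enzyme at 1.5 nM final, 15 min compound preincubation at room temperature, then 2 uM Z-FR-AMC substrate. Activity taken as 60 s fluorescence increase at 360/450 nm.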
RE007 growth inh: qHTS Assay for Inhibitors of the HIV-1 protein Vpr | Potency, µM (series often up to 92.2 µM), for inactives: top-dose activity change, negative = less growth | S. pombe RE007 Vpr strain, BacTiter-Glo ATP luminescence, 24 h; control for the full effect not named in the record | hit rate 0.21% among 360,000; active = well fitted falling curve with a large enough effect; inconclusive = small, poorly fitted or top-dose-only effect; inactive = no such curve, though single readings can be large or run the other way;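 also: % is scaled to controls: 0 for no effect and ±100 for the full control effect; nearly all actives have a fitted effect of over 50% in size; the assay follows cell death caused by Vpr and the record does not say whether a fall means rescue or toxicity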
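Fission yeast RE007 carrying one integrated HIV-1 vpr copy, seeded at OD 0.01 in PMG+AL medium with 23 nL pinned compound. Grown 24 h at 30 degrees; viability read by BacTiter-Glo luminescence after 5 min.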
Active calls of the source: *; ? = inconclusive; nt = no result given; & = joins results of further samples; [ ] = remark or other dose. Unless noted, calls follow the shape of the dose curve; as a rule, active means well fitted rising curve with a large enough effect; inconclusive means small, poorly fitted or top-dose-only effect; inactive means no such curve, though single readings can be large or run the other way. Potency is read from the fitted curve at half-maximal effect. Rows are unselected, and some 4.7% of all compounds hit somewhere here.

SMILES | StopGo reporter | Cruzain noTriton | Marburg entry inh | LASV entry inh | SARS PLP yeast | NS1 function inh | Cruzain inh Det | RE007 growth inh
CC(NC(=O)c1cc2c(cc1Cl)N1CCCCCC1=NS2(=O)=O)c1ccc(S(N)(=O)=O)cc1 (configuration not stated) | 2% | nt | ? | 5% | -3% | nt | nt | 2%
O=C(CCC(=O)N1CCN(c2ccc(F)cc2)CC1)c1ccccc1 | 9% | nt | 14%[46.1 µM] | 5%[46.1 µM] | 4% | 7% | nt | 15%
CCOc1ccc(CN(C)C(=O)CNC(=O)c2ccc3ccccc3c2)cc1OC | ? | nt | ? | -15% | 6% | -7% | nt | -5%
COc1cccc(-c2ocnc2C(=O)Nc2ccc3c(c2)CCC3)c1 | -13% | nt | -23%[46.1 µM] | -5%[46.1 µM] | -4% | 8% | nt | 9%
CCCN(CC(=O)Nc1ccccc1OC)C(=O)CCC(=O)c1ccc(F)cc1 | -2% | nt | 25% | 6% | 8% | nt | nt | 27%
O=C(NCc1nnc(SCC(=O)N2CCCC2)o1)c1c(F)cccc1Cl | 8% | 3% | 9%[46.1 µM] | 21% | ? | 5% | 0.6% | 24%
Cc1ccc(CNC(=O)CN(C(=O)C2(C)CC(=O)N=C3C=CC=CN32)c2ccccc2F)cc1 (configuration not stated) | -7% | nt | 15%[46.1 µM] | -15%[46.1 µM] | -4% | -8% | nt | 1%
COc1ccc(N2C(=O)CCC(C(=O)NCc3ccccn3)C2c2ccc(F)cc2)cc1 (configuration not stated) | 12% | 4% | 22% | 0% | -4% | -7% | -4.8% | 1%
COc1ccc(NC(=O)Nc2cccs2)cn1 | 17% | nt | 8%[46.1 µM] | 5%[46.1 µM] | 1% | 5% | nt | -1%
COC(=O)c1ccc(NC(=O)c2cccc(Cl)c2)o1 | 14% | -3% | 8% | 7% | -11% | -32% | -5.6% | -15%
CCNC(=S)NNC(=O)CCn1c2ccccc2c2ccccc21 | -17% | -2% | 0%[46.1 µM] | ? | -4% | 8% | 1.3% | -14%
COc1ccccc1Cn1c(=S)[nH]c2cc(C(=O)NCC3CCCO3)ccc2c1=O (configuration not stated) | 25µM* | nt | ? | ? | 1% | nt | nt | -16%
O=C1C2CCCCN2C(=O)N1CCCCN1CCN(c2ccc(F)cc2)CC1 (configuration not stated) | -18% | nt | nt | nt | 3% | -2% | nt | -1%
Cc1cccc(NC(=O)CCNS(=O)(=O)c2ccc3c(c2)CCCC(=O)N3)c1C | -26% | -15% | nt | ? | nt | nt | 0.7% | nt
CCCn1c(SCN2C(=O)c3ccccc3C2=O)nc2cc(Cl)ccc2c1=O | -17% | -27% | 16% | ? | -16% | 4% | -4.0% | 4%
CCNC(=S)NCc1ccc2[nH]c(C)cc2c1 | -17% | 11% | -2% | 2% | 8% | 11µM* | -0.9% | 1%
O=C(Oc1cccc(-n2cnnn2)c1)c1ccccc1 | -3% | nt | 1%[46.1 µM] | -1% | 1% | -9% | nt | 48%
COc1cccc(-c2nn(C)c3sc(C(=O)NCc4ccc(C)o4)cc23)c1 | -9% | ? | ? | ? | -3% | -4% | -8.1% | -13%
COc1ccc(OC)c(NC(=O)COC(=O)CCNc2ccccc2OC)c1 | -1% | nt | -1%[46.1 µM] | 28%[46.1 µM] | -6% | nt | nt | 1%
Cc1nonc1NC(=O)CSc1nnc(-c2ccoc2C)n1CC(C)C | 0% | 5% | 5%[46.1 µM] | 0% | -10% | -8% | -1.3% | 8%
COC(=O)c1ccccc1NC(=O)c1cccn(Cc2cccc(Cl)c2)c1=O | -16% | 1% | nt | -11%[46.1 µM] | nt | nt | -8.0% | nt
Cc1ccc(NC(=O)O/N=C2\CCCCC2c2ccc([N+](=O)[O-])cc2[N+](=O)[O-])cc1 (configuration not stated) | -22% | ? | ? | -1% | -14% | 1% | 0.5% | -25%
COc1ccc(C(=O)NCc2ccc3c(c2)CCN3C(C)=O)c(OC)c1 | 25% | -9% | nt | 2%[46.1 µM] | nt | nt | -0.7% | nt
CCCNc1nc(=S)n(-c2ccccc2)c(C)c1C(C)=O | 4% | nt | 16%[46.1 µM] | 1% | 2% | 8% | nt | -25%
COc1ccc(C(=O)OC2C(OC)OCC(O)C2O)cc1 (configuration not stated) | -5% | nt | 12%[46.1 µM] | -2%[46.1 µM] | nt | nt | nt | -2%
O=C1CN=C(Nc2cccc(C(F)(F)F)c2)N1C1CCCC1 | nt | -6% | 8%&-5% | 1% | 1% | -14% | -2.0% | 1%
COc1cccc(CNC(=O)C2CCCN(S(=O)(=O)c3ccc4c(ccn4C)c3)C2)c1OC (configuration not stated) | ? | -1% | nt | -26%[46.1 µM] | nt | nt | -1.0% | nt
CN(Cc1ccc(F)cc1)Cc1nc(-c2ccccc2)no1 | -3% | nt | 6% | 2% | -1% | -6% | nt | 2%
CCc1ccc(N2C(=O)CSC23C(=O)N(Cc2ccc(C)cc2)c2ccccc23)cc1 (configuration not stated) | ? | -26% | nt | -4%[46.1 µM] | nt | nt | -8.6% | nt
Cc1noc(/C=C/c2ccco2)c1S(=O)(=O)N1CCC(C(=O)N2CCc3ccccc3C2)CC1 | -22% | -6% | -29% | ? | -4% | 9% | -8.0% | -5%
COc1ccc(C2Nc3cc(OC)ccc3-n3cccc32)cc1 (configuration not stated) | -7% | nt | ? | -8%[46.1 µM] | -1% | -6% | nt | -22%
CN(c1ccccc1C(=O)Nc1ccc(F)c(F)c1)S(C)(=O)=O | -7% | nt | 7%[46.1 µM] | -1%[46.1 µM] | -3% | 1% | nt | 6%
OCC[C@@H]1C[C@H](O)[C@@H](O)[C@@]2(OCCCc3ccccc32)O1 | 2% | nt | nt | nt | -12% | -1% | nt | 0%
C=CCOc1cccc(C2/C(=C(/O)c3ccc(Cl)cc3)C(=O)C(=O)N2CCN2CCOCC2)c1 (configuration not stated) | -5% | ? | -19% | -26% | 0% | 5% | -5.3% | 1%
COc1ccc2cc3c(N)c(C(=O)NCc4ccco4)sc3nc2c1 | -2% | 1% | ? | -26% | -3% | ? | -23% | -16%
O=C(Nc1ccc(F)cc1Cl)c1ccc2c(=O)n3c(nc2c1)CCCCC3 | 1% | -8% | -3%[46.1 µM] | 9% | -16% | -7% | -2.4% | 4%
O=C(Oc1ccc(Nc2ncnc3ccccc23)cc1)c1cccnc1 | 24% | nt | nt | nt | -1% | 1% | nt | 14%
Cn1c(=O)n(-c2cccc(Cl)c2)c(=O)n1C | -1% | 0% | 16% | -3% | -1% | 2% | 3.4% | -12%
CN(Cc1ccccc1)C(=O)CCC1CCN(C(=O)c2ccccc2C(F)(F)F)CC1 | -28% | nt | nt | nt | -1% | -25% | nt | -9%
CC(=O)c1c(C)oc2ccc(N(C(=O)Oc3ccccc3)S(=O)(=O)c3ccc(Cl)cc3)cc12 | -1% | 3% | -5%[46.1 µM] | 2%[46.1 µM] | nt | nt | -2.0% | nt
CN(C)S(=O)(=O)Nc1cc(F)cc(F)c1 | 12% | nt | 22%[46.1 µM] | 17% | 0% | -3% | nt | 3%
COc1ccc(-c2cc3c(=O)n(CC(=O)Nc4cc(C)ccc4C)ccn3n2)cc1 | 3% | -9% | nt | ? | nt | nt | 0.7% | nt
O=C(NNc1cc(N2CCOCC2)nc(N2CCOCC2)n1)c1ccc(Cl)cc1Cl | -15% | -15% | 10% | -9% | -31% | 10% | 3.8% | -7%
Cc1cccc(NC(=O)CSc2nc(N)cc(N)n2)c1 | 3% | 10% | -14% | 8% | 14% | -9% | -0.4% | 0%
O=C(NC1CCCCC1)c1ccc(S(=O)(=O)NCc2ccco2)cc1 | 26% | 4% | 3% | -17% | -1% | -2% | 1.3% | 17%
Cc1cccc2[nH]c(-c3ccc(NC(=O)c4ccco4)cc3)nc12 | 21% | -17% | ? | ? | -1% | -14% | -28% | 3%
COC1=C/C(=C/c2c(N)n3nc(CC(=O)N4CCCC4)sc3nc2=O)C=CC1=O | -13% | nt | 11%[46.1 µM] | 20%[46.1 µM] | 0% | 15% | nt | 14%
Cc1cc(Nc2ncc(Cl)cc2Cl)n(-c2ccccc2C)n1 | ? | 9% | ? | ? | -77% | -67% | -14% | 0%
CN(CC(=O)Nc1ccc(F)cc1)C(=O)c1ccccc1Sc1ccccc1C#N | -3% | nt | -13% | ? | 1% | nt | nt | 18%
CN(/N=C/c1cc(Cl)cc(Cl)c1O)C(=S)NC(C)(C)C | ? | nt | nt | nt | -3% | -57% | nt | -1%
O=C(CSc1nc2c([nH]c3ccccc32)c(=O)n1-c1cccc(Cl)c1)N1CCOCC1 | -34%&-10% | ? | nt | -21%[46.1 µM] | 10% | 15% | -2.4%&0.6% | 4%
CCc1cc2cc3c(cc2nc1SCC(=O)Nc1c[nH]c(=O)[nH]c1=O)OCO3 | -4% | nt | 1%[46.1 µM] | -23%[46.1 µM] | 12% | -22% | nt | 1%
O=[N+]([O-])c1ccc(N2CCCCCC2)c2nonc12 | -7% | nt | -24%[46.1 µM] | ? | 10% | 5% | nt | -12%
Cc1ccc(N=C2C(=O)Nc3ccc(Br)cc32)cc1 | -13% | nt | ? | 1%[46.1 µM] | -7% | -65% | nt | -13%
CC(C)c1ccc(Nc2c(-c3ccc(N(C)C)cc3)nc3cnccn23)cc1 | -4% | 0% | -1%[46.1 µM] | ? | nt | nt | -1.3% | nt
COc1cccc(C2C(C(=O)c3cc4ccccc4o3)=C(O)C(=O)N2c2cc(C)on2)c1 (configuration not stated) | 4% | nt | nt | nt | 4% | 8% | nt | -7%
CN(C)S(=O)(=O)c1ccc(C(=O)N2CCCC2c2nc3ccccc3s2)cc1 (configuration not stated) | ? | 25% | 2% | 0% | -17% | -10% | -1.2% | -6%
C/C(CC(=O)Nc1ccccn1)=N\NC(=O)C(=O)Nc1ccccc1C | 5% | -5% | 12% | 9% | -1% | 4% | 0.0% | -9%
COc1ccc(C(=O)N(Cc2ccccc2)c2cccc(C)c2)cc1 | 31%[activator] | nt | nt | nt | 3% | -5% | nt | -8%
